KCNQ2 pot: potentiators of rat KCNQ2 potassium channel; actives 0.54% (n = 310,000); B-score at 10 µM; CHO-K1 KCNQ2, FluxOR thallium flux fluorescence; stronger effect = higher value; Potassium voltage-gated channel subfamily KQT member 2 (Rattus norvegicus), O88943; AID 2239, 2010;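 active means fluorescence ratio B-score at least 3 SD of library B-scores, with initial fluorescence B-score within 3 SD, cut at about 5.3 in these data; same plate scores as AID 2156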;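 further: B-score of peak minus minimum over baseline fluorescence ratio after K+ and Tl+ stimulus; positive B-score means potentiation of KCNQ2 with more thallium influx and brighter signal; only the inactives scoring about 0 or higher are listed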
Target sequence (O88943 whole entry, looked up): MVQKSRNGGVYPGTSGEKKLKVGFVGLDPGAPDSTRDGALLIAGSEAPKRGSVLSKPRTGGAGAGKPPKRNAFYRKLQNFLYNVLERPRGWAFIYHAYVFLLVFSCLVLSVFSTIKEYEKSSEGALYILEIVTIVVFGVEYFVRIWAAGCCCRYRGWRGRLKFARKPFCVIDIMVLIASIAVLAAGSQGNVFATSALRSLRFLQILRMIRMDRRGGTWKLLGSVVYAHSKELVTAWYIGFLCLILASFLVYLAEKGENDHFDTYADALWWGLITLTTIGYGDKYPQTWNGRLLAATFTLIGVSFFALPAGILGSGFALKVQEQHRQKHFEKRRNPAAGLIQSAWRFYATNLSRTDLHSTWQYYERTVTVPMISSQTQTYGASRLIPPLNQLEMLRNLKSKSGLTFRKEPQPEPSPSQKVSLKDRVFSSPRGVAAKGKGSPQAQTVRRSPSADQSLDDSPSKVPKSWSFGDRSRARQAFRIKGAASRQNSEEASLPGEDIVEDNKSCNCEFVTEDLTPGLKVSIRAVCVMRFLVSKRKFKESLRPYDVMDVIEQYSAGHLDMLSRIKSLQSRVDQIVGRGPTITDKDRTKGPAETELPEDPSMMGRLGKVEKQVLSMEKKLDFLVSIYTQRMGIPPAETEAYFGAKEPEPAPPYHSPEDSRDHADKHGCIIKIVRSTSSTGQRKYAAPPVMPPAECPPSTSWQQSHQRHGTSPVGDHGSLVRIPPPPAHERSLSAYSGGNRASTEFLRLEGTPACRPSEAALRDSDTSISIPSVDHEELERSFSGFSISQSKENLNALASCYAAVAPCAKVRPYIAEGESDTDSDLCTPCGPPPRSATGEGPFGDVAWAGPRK
KCNQ2 pot baseline: second read-out of KCNQ2 pot, no call of its own (marks repeat the call); B-score; compound at 10 µM; measured here: initial fluorescence intensity artifact check;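 brightness before thallium and not channel activity; 0 = typical well and far values either way flag optical interference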
* = called active by the depositor.

SMILES	KCNQ2 pot	KCNQ2 pot baseline
CC(=O)Nc1ccc(S(=O)(=O)N2CCCC(C(=O)N3CCN(c4ccccc4)CC3)C2)cc1 (stereo not given)	0.64	1
O=C(O)/C=C/c1cn(Cc2ccccc2)nc1-c1cccnc1	0.03	1.52
CCOc1ccc(/C=N/NC(=O)c2cc(-c3ccco3)nc3ccccc23)cc1	0.5	0.22
NS(=O)(=O)c1ccc(CNC(=O)c2sccc2-c2ccccc2)cc1	1.7	0.02
CC(CCc1ccccc1)NC(=O)CN1C(=O)NC2(CCCCC2)C1=O (stereo not given)	1.45	0.03
CCn1ccnc1[C@@H]1C[C@H]2CN(Cc3ccccc3OC)C(=O)[C@]23CCCN13	0.44	-2.01
COc1ccc(-c2csc(NC(=S)NC(=O)c3ccc(S(=O)(=O)N(C)C)cc3)n2)cc1OC	0.06	-2.79
Cc1cccc(NC(=O)Cc2nnc(NC(=O)Nc3ccccc3F)s2)c1	0.75	0.53
C=CCN(CC(=O)NCC1CCCO1)C(=O)CCC(=O)Nc1cc(C)on1 (stereo not given)	0.38	1.77
COc1ccc(CCC(=O)NNC(=O)Cn2nc(C)cc2C)cc1	0.41	1.98
CCCCCCCCCOC(=O)C[n+]1csc(CCO)c1C	0.73	0.51
CCCN(CCC)c1nc2ccccc2nc1C(C#N)C(=O)OCCOC (stereo not given)	0.37	0.37
COc1ccc(C(C)N2CC34C=CC(O3)C(C(=O)OCC(C)C)C4C2=O)cc1 (stereo not given)	0.43	0.1
O=C(COC(=O)CCC(=O)c1ccc(F)cc1)Nc1nnc(-c2ccccc2)o1	1.31	-0.09
CC(C)N1CCC(N2CCN(Cc3cc(F)ccc3-n3cccn3)CC2CCO)CC1 (stereo not given)	1.51	-2.99
CC(=O)c1cc(CN2CCN(C3CCN(C(C)C)CC3)C(CCO)C2)cs1 (stereo not given)	1	-0.61
C/C(=N\NC(=O)c1cc(-c2ccccn2)nc2ccccc12)c1cccc([N+](=O)[O-])c1	1.37	0.01
COc1ccc(CNC(=O)c2ccc(NC(=O)C3CCCO3)cc2)cc1 (stereo not given)	0.77	-0.07
Cc1ccc(CN2CCN(Cc3ccc(OC(C)C)cc3)CC2CCO)o1 (stereo not given)	0.08	0.18
Cc1ccc(NC(=O)CSc2nnc(COc3ccc(C#N)cc3)n2-c2ccccc2)cc1C	2.21	-2.22
COc1ccc(N(CC(=O)NCc2ccc(F)cc2)C(=O)CCC(=O)Nc2ccccn2)cc1	0.88	0.54
COC(=O)c1ccccc1NC(=O)c1cc(C2CC2)on1	0.07	-1.26
Cc1ccc2c(c1)nnn2C1CCN(CC(=O)NCCc2nc3ccccc3[nH]2)CC1	0.05	-1.85
O=C(O)C1CC(=O)N(CCc2ccccc2)C1 (stereo not given)	1.26	-0.67
O=[N+]([O-])c1cnc2ccccn12	1.47	1.21

Overlap with the part before: 2 compounds, then new ones.
SMILES	KCNQ2 pot	KCNQ2 pot baseline
O=C(O)C1CC(=O)N(CCc2ccccc2)C1 (stereo not given)	1.26	-0.67
O=[N+]([O-])c1cnc2ccccn12	1.47	1.21
CN1CCN(C(=S)NC(=O)c2ccc(C(C)(C)C)cc2)CC1	0.44	-2.53
COc1ccc(CCNCC(=O)Nc2ccc(C)c(S(=O)(=O)N(C)C)c2)cc1OC	0.04	-1.71
CCCc1ccc(Oc2cc(Cl)nc(N)n2)cc1	0.69	6.13
Cc1cc(C)n(CCC(=O)N2CCN(S(=O)(=O)c3ccccc3)CC2)n1	1.84	-0.93
CC(c1ccccc1)n1cc(C(=O)NCc2ccccn2)nn1 (stereo not given)	1.07	-0.5
Cc1ccc2nc(NCc3ccccc3)c(C=NCc3cccnc3)c(=O)n2c1	1.44	-2.27
CC(CN1CCCCC1)OC(=O)c1ccc2c(c1)OCO2 (stereo not given)	0.52	0.04
C#CCOCCOCCOCCNc1nc(N2CCOCC2)nc(N2CCN(C(=O)[C@H]([C@@H](C)O)n3cc(CCCCN)nn3)CC2)n1	0.11	2.9
O=C1Nc2ccc(S(=O)(=O)NCCCO)c3cccc1c23	0.41	0.47
COC(=O)c1c(NC(=O)/C=C/C(=O)O)sc(C)c1-c1ccc(C)cc1	1.03	1.42
O=C(Nc1cccc(Cl)c1N1CCOCC1)c1cccnc1	0.17	2.37
CCCCn1c(N)c(N(CCOC)C(=O)CCNC(=O)c2ccccc2Cl)c(=O)[nH]c1=O	0.09	0.79
Cc1cc(C)n(-c2cc(Cl)ccc2[N+](=O)[O-])n1	0.07	0.07
O=C(NC(=S)Nc1nc(-c2cccc3ccccc23)cs1)c1cc2ccccc2o1	8.25*	0.68*
Cc1ccc(NC(=O)c2cc([N+](=O)[O-])ccc2N2CCOCC2)cc1C	0.23	-0.09
O=C1CSC(c2cccnc2)N1c1ccccc1 (stereo not given)	0.04	0.28
Cc1nc(NC(=O)c2ccccc2O)sc1C	1.62	-1.95
CC(C)(C)NC(=O)/C=C/c1ccc(C(F)(F)F)cc1	1.21	0.69
NCC(O)COc1ccc2c(c1)OCO2 (stereo not given)	1.11	0.04
Cc1ccc(NC(=O)C2CC(O)CN2C(=O)OCc2ccccc2)cc1C (stereo not given)	0.03	-0.59
O=C(c1ccncc1)N1N=C(c2ccc(Cl)cc2)CC1c1ccccc1O (stereo not given)	2.09	-1.91
Cn1c(CSc2nc3ccc(Br)cc3[nH]2)nc2ccccc21	0.59	-2.96
CCN1CCN(C(=O)/C=C/c2ccc(OC)c(OC)c2)CC1	0.25	-0.03
COC(=O)Cc1c(C)c2ccc(OC3CCCCC3=O)c(C)c2oc1=O (stereo not given)	1.25	1.34
O=C(O)[C@H](Cc1ccccc1)NC(=O)N1CCN(c2ccc(F)cc2)CC1	2.06	-0.43

A different layout for part of the listing above:
Molecule,KCNQ2 pot,KCNQ2 pot baseline
O=C(Nc1cccc(Cl)c1N1CCOCC1)c1cccnc1,0.17,2.37
CCCCn1c(N)c(N(CCOC)C(=O)CCNC(=O)c2ccccc2Cl)c(=O)[nH]c1=O,0.09,0.79
Cc1cc(C)n(-c2cc(Cl)ccc2[N+](=O)[O-])n1,0.07,0.07
O=C(NC(=S)Nc1nc(-c2cccc3ccccc23)cs1)c1cc2ccccc2o1,8.25*,0.68*
Cc1ccc(NC(=O)c2cc([N+](=O)[O-])ccc2N2CCOCC2)cc1C,0.23,-0.09

Profiles from above. Order of values: KCNQ2 pot | KCNQ2 pot baseline
Listed for O=C1Nc2ccc(S(=O)(=O)NCCCO)c3cccc1c23 = 0.41 | 0.47
Listed for Cc1ccc(NC(=O)c2cc([N+](=O)[O-])ccc2N2CCOCC2)cc1C = 0.23 | -0.09

The listing continues:
SMILES	KCNQ2 pot	KCNQ2 pot baseline
CCCCOc1ccc(NC2=NC3(CCCC3)N=C(N)N2)cc1	1.73	0
Cc1noc2ncnc(N3CCN(c4cccc(Cl)c4)CC3)c12	0.31	-1.24
CCOC(=O)N1CCN(c2nc3ccccc3n3cnnc23)CC1	0.22	0.03
COc1ccc(/C=N/NC(=O)COc2ccc(Cl)cc2Cl)cc1Cn1nc(C)cc1C	0.1	-0.02
Cc1cccc(N(C(=O)CNC(=O)c2ccco2)C(C(=O)NCC2CCCO2)c2ccccc2)c1 (stereo not given)	0.39	-1.58
O=C(COC(=O)c1ccc([N+](=O)[O-])cc1)Nc1ccc(Cl)cn1	0.16	-0.22
Cc1ccc(Nc2nnc(SCc3ccccc3)s2)cc1	0.88	1.05
O=C(CCn1c(=O)oc2ccccc21)Nc1nccs1	0.4	0.68
c1ccc(-c2nc[nH]c2-c2ccccc2)cc1	0.41	0.01
C#CCn1c(=NC(=O)c2sc3ccccc3c2Cl)sc2cc(S(N)(=O)=O)ccc21	0.18	-1.09
Cc1ccc(-c2nn3c(C)nnc3s2)cc1NCc1c(F)cccc1Cl	0.02	0.06
CCOc1cc(CNCCO)cc(Br)c1OCc1cccs1	0.12	-0.38
CCC(Sc1nc(N)c(NC(=O)c2ccco2)c(=O)[nH]1)C(=O)O (stereo not given)	0.99	-0.47
CCCCNC(=S)N1CCN(Cc2ccc3c(c2)OCO3)CC1	1.19	0.75
Cc1cccc(NC(=O)C2CC2c2ccccc2)c1C (stereo not given)	18.2*	-1.2*
N#CC(C(=O)Nc1cccc(Cl)c1)=C1Nc2ccccc2N1	1.06	1.13
CCOc1ccc(Br)cc1S(=O)(=O)Nc1ccc(Cl)c(S(=O)(=O)N(C)C)c1	0.2	-0.09
Cc1ccc(OCc2n[nH]c(=S)n2Cc2ccccc2)cc1	2.15	-0.61
Cc1cc(C)cc(NC(=O)N2c3ccccc3NC(=O)CC2C)c1 (stereo not given)	1.12	-1.16
COc1cc(COCC(O)CN2CCc3ccccc3C2)cc(OC)c1OC (stereo not given)	0.05	0.56
Cc1ccc(C2=N/C(=C\c3cccc(F)c3)C(=O)O2)cc1	0.57	-0.5
Nc1nn(-c2ccccc2)c(N)c1N=Nc1ccccc1	0.31	-1.52
CC1=C(C(=O)Nc2ccc(C)cc2)C(c2ccc(N(C)C)cc2)NC(=O)N1 (stereo not given)	0.1	-0.03
O=C1CCCC(=NCc2ccco2)C1	0.85	-0.04
Cc1nn(Cc2ccccc2)c(C)c1/C=N/NC(=O)c1cccnc1	2.14	-1.05

In the list so far, 3 have bromine:
SMILES	KCNQ2 pot	KCNQ2 pot baseline
Cn1c(CSc2nc3ccc(Br)cc3[nH]2)nc2ccccc21	0.59	-2.96
CCOc1cc(CNCCO)cc(Br)c1OCc1cccs1	0.12	-0.38
CCOc1ccc(Br)cc1S(=O)(=O)Nc1ccc(Cl)c(S(=O)(=O)N(C)C)c1	0.2	-0.09

Other compounds follow:
SMILES	KCNQ2 pot	KCNQ2 pot baseline
CCN1C(=O)/C(=C\N2CCOCC2)SC1=S	0.8	0
O=C(NCc1ccc2c(c1)OCO2)C1CCC(=O)N1C1CCCC1 (stereo not given)	0.13	0.38
CC(C)c1ccc(-c2nc3ccccc3s2)cc1	1.17	0.1
COCCN(C(=O)CCC(=O)Nc1ccccn1)C(C(=O)NC(C)C)c1ccc(Cl)cc1 (stereo not given)	1.87	0.14
CCn1c(SCC(=O)NC(C)(C)C)nnc1-c1ccncc1	0.93	0.04
Cc1ccc(C(=O)N/C(=C/c2ccco2)C(=O)NCc2ccco2)cc1	0.24	1.47
CC(=O)NC1C(OCc2ccccc2)OC2COC(C)(C)OC2C1O (stereo not given)	0.2	-1.23
CCCn1nc(Oc2nc(NCC)nc(NCC)n2)ccc1=O	0.48	-0.56
Cc1cc(C)c(NC(=O)CSc2nncn2-c2cccnc2)c(C)c1	0.11	0.05
Cn1c(=O)c2c(nc(N3CCOCC3)n2CCNC2=NCCC2)n(C)c1=O	1.33	-0.08
COCc1c(Br)c(C)nc(OCC(=O)O)c1C#N	2.25	-0.02
CCOc1cc(C2NC(=O)NC2=O)ccc1O (stereo not given)	0.01	-1.24
CCCCCN(C(=O)CCC(=O)OCC(=O)N1CCCC(C)C1)c1c(N)n(CCCC)c(=O)[nH]c1=O (stereo not given)	0.69	0.19
O=C(NCCc1ccc(F)cc1)c1cc([N+](=O)[O-])ccc1N1CCOCC1	0.05	1.17
Cc1ccc2nc(N(CCN(C)C)C(=O)c3cc(Cl)sc3Cl)sc2c1	0.98	-1.27
COc1ccc(C2=NN(C(=O)CCC(=O)O)C(c3ccccc3)C2)cc1 (stereo not given)	0.07	-0.94
Cc1cc(C(=O)Nc2nnc(C(F)(F)F)s2)cs1	0.09	0.03
CCNC(=O)COC(=O)c1cc(-c2ccccc2)nn1-c1ccccc1	1.41	0.88
O=C(CSc1nccc(-c2cccs2)n1)Nc1ccccc1	0.27	-0.52
N#Cc1cc([N+](=O)[O-])ccc1NC(=O)COC(=O)C1CC2CCCC(C1)C2=O (stereo not given)	0.32	-0.83
Nc1ccc2nc(-c3ccc(Cl)cc3)[nH]c2c1	0.01	-0.87
COc1ccc(CC(=O)NCC(=O)NCc2cc(=O)n(C)c(=O)n2C)cc1	0.1	-1.31
CCSc1nnc(NC(=O)/C=C/c2ccc3c(c2)OCO3)s1	0.78	1.26
O=C(CCc1nc(-c2ccccc2Cl)no1)Nc1cccnc1	1.26	-2.51
O=C1NC(=O)/C(=C\c2ccc(Sc3ccc(Cl)cc3)o2)N1	1.69	-0.01
Further structures follow.
SMILES	KCNQ2 pot	KCNQ2 pot baseline
COc1ccccc1NS(=O)(=O)c1ccc(N2CCOCC2)c(NC(=O)c2ccco2)c1	0.63	1.03
CCOC(=O)N1CCN(C(=O)C2CCCN(S(C)(=O)=O)C2)CC1 (stereo not given)	0.59	0.54
CCN(CC(=O)Nc1cc(Cl)ccc1C)C(=O)c1ccc2c(c1)NC(=O)C(C)S2 (stereo not given)	1.77	-0.67
COc1ccccc1-c1cc(C(=O)N/N=C\c2cn(C)nc2C)c2ccccc2n1	0.07	0.09
COCC(C)NC(=O)c1cccc([N+](=O)[O-])c1 (stereo not given)	1.12	1.65
COc1ccc(NC(=O)CC2C(=O)N(c3ccc(OC)cc3)C(=S)N2NC(=O)c2cccc(F)c2)cc1 (stereo not given)	0.45	0.07
CN1C(=O)C(O)(CC(=O)c2ccc(F)cc2)c2cc(Br)ccc21 (stereo not given)	0.01	-0.56
Cc1cc(C)cc(Nc2cc(C)nc3nc(C)nn23)c1	0.64	-0.76
Cc1cccc(OCC(O)CNC(=O)c2ccccc2C(=O)O)c1 (stereo not given)	0.35	0.48
COc1ccc(Cl)cc1NC(=O)CSc1nnc(-c2ccco2)o1	0.01	0.88
O=c1c2ccc([N+](=O)[O-])c3cccc(c32)c2nc3ccccc3n12	0.17	1.08
CCN(CC(=O)Nc1c(F)cccc1F)C(=O)CSc1nc2ccccc2o1	0.6	-1.04
Fc1ccc(NCc2nnc(SCc3nnc(-c4ccccc4)o3)n2CC2CCCO2)cc1 (stereo not given)	1.26	0.8

An excerpt; the hit share may differ from the screen's.
